Screening results: PubChem BioAssay, National Center for Advancing Translational Sciences (NCATS)
D2 agonist = agonists of human D2 dopamine receptor (beta-arrestin). DiscoveRx PathHunter D2 beta-arrestin, luminescence, 90 min; 100% = 57 uM dopamine signal. activation, % (no concentration beside the values). hit rate 0.084% among 360,000. AID 624465; in the data active = activation above about 40%; inconclusive = about 15% to 40%; inactive = below about 15%; note: compound concentration not given in the record; the text of the record calls up to 30% inactive
Target sequence (P14416 whole entry, looked up): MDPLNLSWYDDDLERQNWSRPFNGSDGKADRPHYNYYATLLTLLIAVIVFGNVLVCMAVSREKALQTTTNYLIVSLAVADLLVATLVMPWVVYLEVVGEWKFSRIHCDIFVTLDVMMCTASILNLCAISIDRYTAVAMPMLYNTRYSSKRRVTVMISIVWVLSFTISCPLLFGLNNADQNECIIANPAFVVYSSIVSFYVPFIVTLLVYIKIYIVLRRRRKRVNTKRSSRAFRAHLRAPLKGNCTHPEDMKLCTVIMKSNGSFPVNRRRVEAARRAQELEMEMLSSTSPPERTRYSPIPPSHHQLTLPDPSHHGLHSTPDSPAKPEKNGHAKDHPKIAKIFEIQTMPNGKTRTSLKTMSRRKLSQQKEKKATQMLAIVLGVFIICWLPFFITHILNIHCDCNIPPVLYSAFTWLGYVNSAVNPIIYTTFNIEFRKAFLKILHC
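Agonist mode: compounds alone added to overnight-plated D2 PathHunter cells for 90 min at 37 C, with 57 uM final dopamine (EC100) defining full response. Beta-arrestin recruitment detected by chemiluminescent reagent, read after 1 h at ambient temperature.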
Six1-Eya2 inh = blocks human Six1 binding to Eya2; AlphaScreen GST-Six1/His-Eya2 binding, biochemical; hits give low values; control for the full effect not named in the record; activity change, % (concentration not given with the values); hit rate 0.56% among 360,000; Q15475+O00167; AID 651725; in the data active = activity change below about -65%; inconclusive = about -30% to -65%; inactive = above about -30%; note: % is set by controls: 0 for no effect and ±100 for the full control effect
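AlphaScreen luminescence read after one hour at 37 °C in darkness. Pin-transferred compounds met GST-Six1 and His-Eya2 protein (5X stock 250 nM/500 nM) plus glutathione donor and Ni-chelate acceptor beads (5X, 50 ug/mL).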
CtBP-E1A inh = CtBP/E1A binding inhibition; AID 651724; hit rate 0.49% among 340,000; AlphaScreen GST-E1A/His-CtBP binding, 1536-well; hits give low values; control for the full effect not named in the record; activity change, % (no concentration beside the values); in the data active means activity change below about -65%; inconclusive means about -30% to -65%; inactive means above about -30%; note: % is set by controls: 0 for no effect and ±100 for the full control effect; compound concentration not given in the record
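Homogeneous bead-based format: GST-tagged E1A captured on glutathione donor beads, His-tagged CtBP on nickel acceptor beads; compounds precede bead addition by 2 h at 37 °C.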
D2 potentiator = positive allosteric modulators of human D2 dopamine receptor; DiscoveRx D2 beta-arrestin cells, luminescence, 90 min; 100% = 57 uM dopamine signal; AID 624464; hit rate 0.23% among 360,000; potentiation, % (concentration not given with the values); active = potentiation of 50% or more; inconclusive = 30% to 50%; inactive = 30% or less;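 note: compound concentration not given in the record; tested on top of an EC20 dose of dopamine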
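PathHunter beta-arrestin assay in DiscoveRx D2 cells. Compounds were added with an EC20 of dopamine (50 nM final) for 90 min at 37 deg C. Luminescence was read 1 h after detection reagent, with 57 uM dopamine as the EC100 control.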
TRPML1 agonist = human mucolipin-1 channel agonism; activation, % (concentration not given with the values); Q9GZU1; hit rate 0.12% among 410,000; TRPML1-expressing cells, Ca2+ dye fluorescence, FDSS; host cell line not named in the record; reference of the full effect not given here; AID 624414; in the data active = activation above about 50%; inconclusive = about 30% to 50%; inactive = below about 30%; note: 0% is about no effect; the text of the record puts the active cut at 80%
Target sequence (Q9GZU1 whole entry, looked up): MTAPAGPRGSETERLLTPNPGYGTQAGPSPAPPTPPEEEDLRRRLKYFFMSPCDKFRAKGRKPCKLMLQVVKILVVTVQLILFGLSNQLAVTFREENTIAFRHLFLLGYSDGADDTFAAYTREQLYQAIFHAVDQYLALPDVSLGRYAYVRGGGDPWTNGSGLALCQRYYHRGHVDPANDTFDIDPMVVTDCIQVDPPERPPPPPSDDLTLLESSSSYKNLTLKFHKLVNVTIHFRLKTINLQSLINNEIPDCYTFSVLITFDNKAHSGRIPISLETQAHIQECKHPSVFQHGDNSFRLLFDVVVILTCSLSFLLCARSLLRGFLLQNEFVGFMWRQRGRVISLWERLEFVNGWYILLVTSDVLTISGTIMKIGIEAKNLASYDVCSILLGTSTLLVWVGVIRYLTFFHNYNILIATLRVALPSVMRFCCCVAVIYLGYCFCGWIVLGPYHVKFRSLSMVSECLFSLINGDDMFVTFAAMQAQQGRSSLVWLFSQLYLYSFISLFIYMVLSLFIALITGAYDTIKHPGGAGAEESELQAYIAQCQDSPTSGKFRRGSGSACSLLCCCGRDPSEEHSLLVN
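Agonist activity was taken from a 110 s kinetic Ca2+ dye read on the FDSS after pinning compounds onto TRPML1-DL cells. The cells were seeded at 1,500/well with Tet inducer, incubated about 16 h, then dye-loaded at room temperature.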
PINK1 modulator = PINK1 expression modulation; PINK1 immunofluorescence, high-content cytometry, 24 h; Potency, µM (doses to about 76.6 µM), inactives show at the highest dose activation (PINK1 increase), actives largely listed as activators; hit rate 0.2% among 410,000; active = well fitted activation curve with a large enough effect; inconclusive = small, poorly fitted or top-dose-only effect; inactive = flat fitted curve, though single readings scatter; cell line not stated here;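 note: potency is the fitted concentration of half-maximal effect; % of control where 0% means no effect; nearly all actives have a fitted effect of over 65% in size; a mitochondrial uncoupler was the plate control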
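Decision-based qHTS: stable cells, 24 h exposure to five compound concentrations, CCCP as control. Fixed cells stained for PINK1 plus nuclear, mitochondrial and cell markers, cytometer read.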
* = called active by the depositor; ? = inconclusive; . = no result given; [ ] = remark or other dose. These rows are one share of the data (hit frequency here may not be typical).

SMILES	D2 agonist	Six1-Eya2 inh	CtBP-E1A inh	D2 potentiator	TRPML1 agonist	PINK1 modulator
O=c1[nH]c(=S)n(Cc2ccc(F)cc2)c(O)c1C=NCC1CCCO1 (stereo unspecified)	2.4	4	-1	9	0.7	.
CCOC(=O)/C(=N\Nc1ccccc1)N1CC1	-0.3	-1	.	0	-0.8	1.1%
COc1ccccc1C=C1C(=O)NC(=S)NC1=O	-4.1	8	-1	-9	0.7	-1.6%
CC12CCC3C(CCC4(O)CC(O)CCC34C=O)C1(O)CCC2C1=CC(=O)OC1 (stereo unspecified)	0.7	0	2	-7	1.8	-1.2%
S=C=Nc1cccc(C2(N3CCCCC3)CCCCC2)c1	-3.7	-4	-7	-30	-0.1	2.2%
Fc1ccc2c(c1)nnn2C1CCN(Cc2nnnn2CCc2ccccc2)CC1	-1.9	0	-2	-33	-0.6	-1.5%
O=C(Cc1ccccc1)OC(COCc1ccccc1)CN1CCOCC1 (stereo unspecified)	-5.4	2	3	-11	-0.8	1.4%
COc1ccc(CCNC(C)CCc2ccc(OC)cc2)cc1 (stereo unspecified)	-2.5	3	5	-15	0.7	.
COc1cc(CN=C(C)c2c(O)n(C)c(=O)n(C)c2=O)cc(OC)c1	-5.3	10	4	-3	-0.6	-0.9%
C[C@]12CCC3C(CC[C@H]4C[C@H](O)CC[C@]34C)C1[C@@H](O)C[C@@H]2O (stereo partly specified)	-2.5	1	1	-12	-0.1	2.3%
C=C1N2CCC(CC2)C1(O)c1ccccc1C (stereo unspecified)	-3.5	10	6	-1	-0.9	1.7%
CN1C(=O)C(Cc2ccccc2)C(=O)N(C)C1=O	-1.3	2	2	-7	-0.6	0.6%
CC(C)Nc1ccc(Nc2ccccc2)cc1	-5.7	?	9	-10	1.1	6.5%
CCc1ccc(N2C(=O)NC(=O)/C(=C/c3cccn3CCOc3ccc(C(C)CC)cc3)C2=O)cc1 (stereo unspecified)	-4.2	-17	.	-11	2.8	16%
CC(C(=O)Nc1ccc(Cl)cc1Cl)N1CC=C(c2ccccc2)CC1 (stereo unspecified)	-1.9	12	8	-27	0.4	9.1%
O=C(c1cc(F)ccc1F)C1CCCN(Cc2ccc3nonc3c2)C1 (stereo unspecified)	-6.2	-1	28	-11	1.8	2.2%
Cc1ccc(CN2C3CCCC2CC(NC(=O)Nc2cccc(F)c2)C3)cc1 (stereo unspecified)	-2.3	-8	-5	-26	0.3	4.7%
CN1c2ccc([N+](=O)[O-])cc2CC2(C(=O)NC(=O)N(c3ccccc3)C2=O)C1c1ccccc1 (stereo unspecified)	0.8	-8	1	2	-0.4	8.7%
O=C(O)C1=CC2c3ccccc3C1c1ccccc12	-7.3	-2	3	-3	0.4	-1.0%
CC(=O)OC(C)(C)/C=C/C(=O)C(C)(O)C1C(O)CC2(C)C3CC=C4C(CC(O)C(=O)C4(C)C)C3(C)C(=O)CC12C (stereo unspecified)	0.0	-1	6	1	-0.5	-7.2%
CN1C(=O)NC(=O)[C@]2(Cc3ccccc3N3CCN(c4ccccc4)CC32)C1=O (stereo partly specified)	7.3	-28	-26	-22	-0.8	7.0%[38.3 µM]
O=C1/C(=C\c2cc3c(cc2Cl)OCO3)N2CCC1CC2	-3.3	6	3	-16	0.4	-1.2%
c1ccc(C2CC2)c(OCC2=NCCN2)c1	-3.3	-1	9	-15	-0.2	0.5%
N#CC1c2ccccc2-n2nncc2CN1S(=O)(=O)c1ccccc1 (stereo unspecified)	-2.6	-2	-11	-6	4.5	-1.0%
CCOC(=O)Cn1cc([N+](=O)[O-])nc1[N+](=O)[O-]	8.9	-30	1	.	-0.7	0.2%
CCOc1ccc2[nH]c(=O)c(CN(CCO)C3(c4nnnn4C4CCCCC4)CCCCC3)cc2c1	-0.1	13	3	-1	-0.6	1.3%
N#C[C@H](O[C@@H]1O[C@H](CO[C@@H]2O[C@H](CO)[C@@H](O)[C@H](O)[C@H]2O)[C@@H](O)[C@H](O)[C@H]1O)c1ccccc1	-1.9	4	7	?	-0.9	0.2%
O=Cc1cn(Cc2ccccc2F)c2ccccc12	5.3	7	8	-2	1.8	-1.8%
Cc1cccc(CN2CCCC(C(=O)c3ccc4c(c3)OCO4)C2)n1 (stereo unspecified)	2.5	5	-9	-10	0.2	-0.2%
CCn1c(O)c(C=NCc2ccccc2)c(=O)[nH]c1=S	-3.8	16	-2	-4	3.1	2.0%

Single values from the entries so far.
Reading of `CN1C(=O)NC(=O)[C@]2(Cc3ccccc3N3CCN(c4ccccc4)CC32)C1=O` (stereo partly specified) under CtBP-E1A inh: -26
Reading of `Cc1ccc(CN2C3CCCC2CC(NC(=O)Nc2cccc(F)c2)C3)cc1` (stereo unspecified) under Six1-Eya2 inh: -8

Next section:
SMILES	D2 agonist	Six1-Eya2 inh	CtBP-E1A inh	D2 potentiator	TRPML1 agonist	PINK1 modulator
O=c1[nH]c(=O)n(Cc2ccccc2Cl)c(O)c1/C=C1/C=CC=N1	-2.0	-3	4	-4	-0.4	4.7%
CCOc1cc2c(cc1OCC)-n1cccc1C(c1ccc(F)c(OC)c1)NC2 (stereo unspecified)	-3.7	-17	-2	-3	.	8.6%
Cc1ccc(OP(=O)(NCc2ccccc2)Oc2ccc(C)cc2)cc1	2.3	7	13	-15	2.0	11%
O=c1[nH]c(=O)n(-c2ccccc2Cl)c(O)c1C=NCCN1CCCCC1	-0.2	3	6	-13	-0.2	-2.4%
COC(=O)C(O)(c1c[nH]c2ccccc12)C(F)(F)F (stereo unspecified)	-0.7	-1	8	12	-0.8	-1.0%
Cn1cnc(CCN)c1	-3.4	3	-21	-36	-0.5	0.5%
Fc1cccc(-c2ccc3c(c2)CN(c2cccc(Cl)c2)Cc2cnnn2-3)c1	-4.9	-2	-30	-7	0.6	0.8%
Cc1ccc(S(=O)(=O)Oc2ccccc2C=C2C(=O)N(C)C(=O)N(C)C2=O)cc1	-3.9	-13	-1	-7	0.0	3.3%
O=C(COc1ccc(Br)cc1)N1CCN(Cc2c[nH]c3ccccc23)CC1	1.1	-16	-2	-31	5.6	2.0%
CC(=O)C1CCC2C3CCC4CC(O)CCC4(C)C3CCC12C (stereo unspecified)	3.7	-3	3	-6	-0.8	-0.6%
COc1cc2c3cc1Oc1cc(ccc1O)C[C@@H]1c4c(cc(OC)c(O)c4Oc4cccc(c4)C[C@@H]3N(C)CC2)CC[N+]1(C)C	-0.8	-1	2	2	-0.3	0.1%
NCCc1ccc(S(N)(=O)=O)cc1	2.0	5	-2	-23	1.2	-1.8%
COc1cc(C(=O)Nc2ccc(Br)cc2C(=O)c2ccccc2)cc(OC)c1OC	-0.8	-3	3	-18	-1.3	8.0%
CC[C@H]1CN2CCC1C[C@@H]2[C@H](O)c1ccnc2ccc(OC)cc12 (stereo partly specified)	8.9	0	-2	-28	0.4	2.6%
COc1ccc(OC(=O)N(C)C[C@@H]2OCc3cnnn3CCCC(=O)N([C@@H](C)CO)C[C@@H]2C)cc1	-1.7	0	1	.	.	-0.2%
CCN(CC)c1ccc(C=C2C(=O)N(C)C(=S)N(C)C2=O)o1	-13	7	-5	1	6.8	21%
COC(=O)C(O)(c1ccc(NC(=O)c2ccco2)c(OC)c1)C(F)(F)F (stereo unspecified)	2.4	-9	-2	3	-0.4	0.2%
CCCCn1c(O)c(C(CC)=NCCCn2ccnc2)c(=O)[nH]c1=O	-3.2	-6	-13	-8	1.3	1.1%
Cc1ccc(C2(O)CC(C)N(C)CC2C)cc1 (stereo unspecified)	-3.7	-1	0	-21	0.0	-1.1%
CCOC(=O)c1c(C)n(C(C)C)c2ccc(OC(=O)c3ccc(N4C(=O)CCC4=O)cc3)cc12	-4.3	7	4	-7	-0.2	-0.9%
COc1ccc(CCN)cc1OC	-2.4	5	0	-6	-0.1	0.4%
O=C(COc1ccc(S(=O)(=O)N2CCOCC2)cc1)N1CCN(Cc2ccc3c(c2)OCO3)CC1	-1.8	0	-2	-7	0.6	7.6%[38.3 µM]
COC(=O)C1=C(c2c(C)noc2C)C[C@@H]2CC[C@H]1N2C(=O)NCCOc1ccccc1Cl	1.0	-1	3	-5	-0.5	0.2%
CSc1ccccc1C(=O)C1CCCN(Cc2ccccn2)C1 (stereo unspecified)	0.1	-3	-28	-13	0.1	-0.4%
C1CCC2S[C@H]3CCCCC3NC2C1 (stereo partly specified)	-3.3	13	8	-4	1.8	-0.9%
CC(C)OC(=O)C1C2c3ccccc3C(c3ccccc32)C1C(=O)O (stereo unspecified)	3.9	-12	-11	-3	0.6	1.4%
O=C(Cc1ccccc1)NC(Cc1ccc(Cl)cc1)C(=O)O (stereo unspecified)	-2.9	2	5	2	0.4	-0.3%
CC1CCCCN1Cc1cccnc1 (stereo unspecified)	-3.9	-9	-3	-6	0.5	4.5%
O=c1c2ccccc2nc(-c2ccco2)n1-c1cccnc1	-2.7	-3	-2	-3	1.1	-1.4%
C(#CCN1CCOCC1)COC/C=C/c1ccccc1	-0.2	5	0	-13	1.1	0.9%
COc1ccc(-n2nc(C(=O)NCC(=O)N3CCC4(CC3)OCCO4)c3ccccc3c2=O)cc1OC	-2.7	3	-18	3	-0.1	2.3%
CC(Cc1cccs1)NCc1ccc(Cl)cc1 (stereo unspecified)	-2.2	0	2	-28	-1.1	2.1%
CCC(=NCC1CCCO1)c1c(O)n(-c2ccc(Cl)cc2)c(=O)[nH]c1=O (stereo unspecified)	3.0	6	0	-32	0.4	-1.3%
COc1ccc(C=C2C(=O)N(C)C(=O)N(C)C2=O)cc1COc1ccc(NC(C)=O)cc1	-6.1	7	-11	-9	0.8	0.1%
CC(C)NC(=O)Cn1cc(C(=O)c2ccccc2)c2ccccc21	-3.0	-11	.	-15	-0.2	1.3%
Cc1ccccc1-n1c(CNc2ccccc2)nc2ccccc2c1=O	-7.4	-2	.	-13	0.2	3.3%
Cc1ccc(C)c(CN2CCC(n3nnc4cc(F)ccc43)CC2)c1	-2.6	-4	-2	-18	2.1	-1.4%[38.3 µM]
CCOc1ccc(C2SCC(=O)Nc3c2c(C)nn3C2CCOC(C)(C)C2)cc1 (stereo unspecified)	-3.6	-5	8	10	-0.1	2.0%
O=C1NC(=O)N(Cc2ccccc2)C(=O)C1Cc1ccccc1 (stereo unspecified)	-1.3	15	29	-3	-0.2	3.2%
CCN1CCN(c2ccc(NC(C)=O)cc2Cl)CC1	-4.4	1	2	-5	0.7	0.9%

Full records, looked up by structure. Values in the order: D2 agonist | Six1-Eya2 inh | CtBP-E1A inh | D2 potentiator | TRPML1 agonist | PINK1 modulator
COc1ccc(-n2nc(C(=O)NCC(=O)N3CCC4(CC3)OCCO4)c3ccccc3c2=O)cc1OC across the screens: -2.7 | 3 | -18 | 3 | -0.1 | 2.3%
COC(=O)C(O)(c1c[nH]c2ccccc12)C(F)(F)F (stereo unspecified) across the screens: -0.7 | -1 | 8 | 12 | -0.8 | -1.0%
CCOc1cc2c(cc1OCC)-n1cccc1C(c1ccc(F)c(OC)c1)NC2 (stereo unspecified) across the screens: -3.7 | -17 | -2 | -3 | . | 8.6%
COc1ccc(CCN)cc1OC across the screens: -2.4 | 5 | 0 | -6 | -0.1 | 0.4%
C[C@]12CCC3C(CC[C@H]4C[C@H](O)CC[C@]34C)C1[C@@H](O)C[C@@H]2O (stereo partly specified) across the screens: -2.5 | 1 | 1 | -12 | -0.1 | 2.3%
